Screens: PubChem BioAssay, several laboratories
Mtb hypoxia rep – PubChem AID 1159583; M. tuberculosis hypoxia-regulated fluorescent reporter, fluorescence; fluorescence inhibition, % (no concentration beside the values); actives 0.1% (n = 300,000);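 active means 35 to 45% if threefold the growth effect, above 45% if 1.5-fold the growth effect; inactive means the rest, general growth blockers included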;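 further: wells of about 50 µL received 100 nL stock; 0% = vehicle wells and 100% = reference inhibitor wells; whole bacteria with a GFP reporter of the hypoxia response; strong numbers were not always called active; many hits fall short of the cut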
Sa ugtP lethal – growth inhibition of ugtP-null S. aureus, primary screen, RN4220 ugtP deletion, OD600 | 16 h; some inactives read as strong as hits | growth inhibition, % (no concentration beside the values) | actives 0.54% (n = 330,000) | AID 1259309, 2017;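 active means z-score under -3 and OD600 up to 0.15 on both plates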;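 further: plate controls were untreated wells for no effect and antibiotic for full effect; wells of about 80 µL received 100 nL stock; the first replicate is given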
PrP 5UTR inh – inhibition of PrP 5' UTR reporter expression; inhibition, % (no concentration beside the values); actives 0.35% (n = 340,000); cell-based PrP 5' UTR mRNA reporter, plate reader;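 active means every replicate at 50% or more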;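 further: 0 = median of the neutral control wells; tested in H4 reporter cells; numbers are from one replicate; inactives centre near -14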
Bead autofluor – counter-screen for toxin protease inhibitors: compound fluorescence. compound autofluorescence counterscreen, microsphere flow cytometry; hits give high values. fluorescence intensity (no concentration beside the values). actives 3.1% (n = 360,000);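 active means at least 3 SD above the mean of all compounds, about 16000 in these data; inconclusive means too few beads counted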;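 further: 100 nL of 1 mM stock went into each well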
BJeLR viability – MLPCN primary cell-based screen for lethality selective to Ras in HRASV12 cells | BJeLR (HRASV12) viability, CellTiter-Glo ATP luminescence, 48 h; reference of the scale not given here | inhibition, % (test concentration not listed) | actives 0.17% (n = 300,000) | AID 1554, 2009;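 active means replicate mean above 50%; inconclusive means above 50% but judged a plate artefact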;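 further: 50 nL library stock added to about 25 µL; numbers are from one replicate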
Sa RN4220 lethal – growth inhibition of S. aureus RN4220, primary screen, OD600; inhibition, % (no concentration beside the values); actives 0.33% (n = 330,000); 16 h;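 active means z-score of -3 or lower and OD600 up to 0.18 on both plates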;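 further: plate controls were untreated cells for no effect and reference antibiotic for full effect; stock transfer was 100 nL into about 80 µL; one replicate is shown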
Mtb hypoxia rep growth – second read-out of Mtb hypoxia rep, no call of its own (marks repeat the call); growth inhibition, %; measured here: M. tuberculosis growth (absorbance);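 0% = vehicle and 100% = reference antibiotic; read after six days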
The depositor's hits bear a star; ? = inconclusive; nt = not tested or not shown.

1: COc1cc(C(C)=O)ccc1OCC(=O)c1cc(C)n(C2CC2)c1C
2: O=P(Oc1ccc(-c2ccccc2)cc1)(N1CC1)N1CC1
3: CC(C)[C@H](NC(=O)c1ccccc1)C(=O)OCC(=O)c1ccccc1F
4: Cc1ccc(N=C(N(C)C)P(=O)(N(C)C)N(C)C)cc1
5: Cc1nc2ccccc2c(=O)n1NC(=O)Cc1ccc(Br)cc1
6: COc1ccc2c(c1OC)C(=O)N(c1nc(SC)n[nH]1)C2=O

compound no.	1	2	3	4	5	6
Mtb hypoxia rep	10	7	1	nt	0	5
Mtb hypoxia rep growth	20	2	14	nt	4	-8
Sa ugtP lethal	8	0	3	nt	1	8
PrP 5UTR inh	-19	-39	-5	-58	-6	-17
Bead autofluor	6052	3484	3236	4967	10949	4393
BJeLR viability	-11	nt	2	5	-14	8
Sa RN4220 lethal	4.6	3.3	14	nt	2.9	2.3

7: Cc1ccc(N(CC(=O)NCC2CCCO2)C(=O)CCC(=O)Nc2nccs2)cc1C (stereo not drawn)
8: COc1cc(C=NNC(=O)c2cccnc2)ccc1OC(=O)c1cccc(Br)c1
9: CN(Cc1ccco1)C(=O)C1CCCN(c2ncnc3c2nc2n3CCCCC2)C1 (stereo not drawn)
10: CCCC(C(=O)NCc1ccco1)N(C(=O)CNS(=O)(=O)c1ccccc1)c1ccc(OC)cc1 (stereo not drawn)
11: CCOc1ccc(-c2nnn(CC(=O)Nc3cc(OC)cc(OC)c3)n2)cc1OCC
12: CCOC(=O)N1CCN(C(=O)c2ccc(Cl)c(NC(=O)c3cccs3)c2)CC1

compound no.	7	8	9	10	11	12
Mtb hypoxia rep	9	1	3	14	16	6
Mtb hypoxia rep growth	8	9	-7	8	1	-2
Sa ugtP lethal	4	-6	7	2	21	8
PrP 5UTR inh	-24	nt	-23	-16	-29	-28
Bead autofluor	3800	nt	5669	4261	12620	3645
BJeLR viability	-5	nt	-8	3	-1	nt
Sa RN4220 lethal	3.6	3.6	0.7	3.8	16	1.4

13: CC(=O)N/C(=C\c1ccccc1)C(=O)OCc1ccc(F)cc1
14: CCn1c(SCC(=O)Nc2ccc(C(=O)OC)cc2)nc2cccnc21
15: COc1cc(OC)c(NC(=S)NCc2ccccc2)cc1Cl
16: CCOC(=O)c1ccc(N2C(=O)c3cccc4c(C(=O)O)ccc(c34)C2=O)cc1
17: CS(=O)(=O)c1ccc(NC(=O)c2cccc(-n3cnnn3)c2)cc1
18: CC1CC(C)CN(C(=O)COC(=O)/C=C/c2ccco2)C1 (stereo not drawn)

compound no.	13	14	15	16	17	18
Mtb hypoxia rep	9	nt	3	-3	8	12
Mtb hypoxia rep growth	-4	nt	-6	5	6	7
Sa ugtP lethal	7	-6	7	11	1	7
PrP 5UTR inh	7	-8	-11	-20	-15	-18
Bead autofluor	?	4764	4807	3396	3479	5172
BJeLR viability	-3	-2	nt	-5	nt	nt
Sa RN4220 lethal	2.4	-3.9	8.2	5.0	-1.3	5.2

19: COc1ccccc1CNC(=O)C1CC2Cn3c(nc4cc(Cl)c(Cl)cc43)C2N1C (stereo not drawn)
20: CC1(c2ccccc2)CC2CC(c3ccccc3)N1O2 (stereo not drawn)
21: O=C(COC(=O)c1cccnc1Cl)NCCC1=CCCCC1
22: O=C(Nc1ccccc1C(=O)O)c1ccc(NC(=O)C2CCCCC2)cc1
23: COc1ccccc1NS(=O)(=O)c1cccc(C(=O)NN=Cc2c(C)nn(-c3ccccc3)c2N2CCCC2)c1
24: O=C(CC1C(=O)N(Cc2ccccc2)C(=S)N1CCN1CCOCC1)Nc1ccc(F)cc1 (stereo not drawn)

compound no.	19	20	21	22	23	24
Mtb hypoxia rep	3	7	2	5	1	9
Mtb hypoxia rep growth	10	3	11	12	0	-5
Sa ugtP lethal	4	3	-7	-5	-10	-10
PrP 5UTR inh	-30	-24	17	8	nt	-37
Bead autofluor	3593	10269	4146	5342	nt	4642
BJeLR viability	7	2	-18	8	nt	-1
Sa RN4220 lethal	-2.9	2.8	-1.0	2.0	7.1	2.0

Part of the list above in another layout:
21) O=C(COC(=O)c1cccnc1Cl)NCCC1=CCCCC1
  Mtb hypoxia rep: 2
  Mtb hypoxia rep growth: 11
  Sa ugtP lethal: -7
  PrP 5UTR inh: 17
  Bead autofluor: 4146
  BJeLR viability: -18
  Sa RN4220 lethal: -1.0
22) O=C(Nc1ccccc1C(=O)O)c1ccc(NC(=O)C2CCCCC2)cc1
  Mtb hypoxia rep: 5
  Mtb hypoxia rep growth: 12
  Sa ugtP lethal: -5
  PrP 5UTR inh: 8
  Bead autofluor: 5342
  BJeLR viability: 8
  Sa RN4220 lethal: 2.0
23) COc1ccccc1NS(=O)(=O)c1cccc(C(=O)NN=Cc2c(C)nn(-c3ccccc3)c2N2CCCC2)c1
  Mtb hypoxia rep: 1
  Mtb hypoxia rep growth: 0
  Sa ugtP lethal: -10
  PrP 5UTR inh: nt
  Bead autofluor: nt
  BJeLR viability: nt
  Sa RN4220 lethal: 7.1
24) O=C(CC1C(=O)N(Cc2ccccc2)C(=S)N1CCN1CCOCC1)Nc1ccc(F)cc1 (stereo not drawn)
  Mtb hypoxia rep: 9
  Mtb hypoxia rep growth: -5
  Sa ugtP lethal: -10
  PrP 5UTR inh: -37
  Bead autofluor: 4642
  BJeLR viability: -1
  Sa RN4220 lethal: 2.0

New compounds follow
25: Cc1ccccc1CN1CCN(CC(=O)NC(C)c2ccccc2)CC1 (stereo not drawn)
26: O=C(O)c1ccc(N2CCOCC2)c(N2C(=O)C3C4C=CC(C4)C3C2=O)c1 (stereo not drawn)
27: Cc1ccc2nc(NCc3ccccc3)c(C#N)cc2c1
28: Cc1ccc(-n2nnnc2SCC(=O)NC(C(=O)O)(c2ccccc2)c2ccccc2)cc1C
29: COc1ccc(S(=O)(=O)Nc2c(C(=O)O)[nH]c3ccc(OC)cc23)cc1
30: O=C(O)CSc1nnc(-c2cccc(S(=O)(=O)N3CCOCC3)c2)n1-c1cccc(Cl)c1

compound no.	25	26	27	28	29	30
Mtb hypoxia rep	7	3	-5	-7	8	-8
Mtb hypoxia rep growth	-1	9	-4	8	8	8
Sa ugtP lethal	9	7	-2	-3	1	13
PrP 5UTR inh	-9	-28	-13	-10	-16	4
Bead autofluor	4331	4049	4821	2222	4057	3194
BJeLR viability	4	-2	7	-5	-1	-7
Sa RN4220 lethal	0.3	2.3	-0.3	-2.4	2.9	6.8

31: Cc1ccccc1N=C(NOCc1ccc(Cl)cc1Cl)c1nonc1N
32: Cc1ccc(CN2C(=O)C(CC(C)C)Nc3ncnc(N4CCN(c5ccccn5)CC4)c32)cc1 (stereo not drawn)
33: COc1ccc(NC(=O)c2ccc(-n3cncn3)c([N+](=O)[O-])c2)cc1
34: Cc1cc(C)c2c(n1)SCC(=O)N2CC(=O)Nc1ccc(Br)c(C)c1
35: CCN(CC)C(=O)CSc1nc2cc3c(cc2c(=O)n1Cc1ccc(OC)cc1)OCO3
36: Oc1ccc(-n2nnnc2SCc2ccccc2Br)cc1

compound no.	31	32	33	34	35	36
Mtb hypoxia rep	-4	-9	10	2	5	-2
Mtb hypoxia rep growth	3	4	7	-2	12	13
Sa ugtP lethal	-25	-17	-4	1	7	-2
PrP 5UTR inh	-19	-2	-21	-19	5	-7
Bead autofluor	11697	3645	4885	nt	4046	3610
BJeLR viability	-3	4	1	2	14	3
Sa RN4220 lethal	-9.9	2.8	6.9	-3.2	4.4	-5.1

37: O=C(CSCc1cccs1)N1CCCC1
38: CC(=O)c1cnc2c(-c3ccc(Cl)cc3)c(C)nn2c1C
39: O=C(Nc1nc(-c2ccc(F)cc2)cs1)c1cccc(N2C(=O)CCC2=O)c1
40: CN(C)CC(C)(C)CN=Cc1c(O)[nH]c2ccccc12
41: Cc1ccc(Sc2nc3ccc(C)cn3c(=O)c2C=NO)cc1
42: COC(=O)c1nnn(CC(=O)NC(=O)Nc2cccc(Cl)c2C)c1C(=O)OC

compound no.	37	38	39	40	41	42
Mtb hypoxia rep	9	18	0	8	-7	nt
Mtb hypoxia rep growth	-3	9	0	12	-1	nt
Sa ugtP lethal	4	-3	3	8	-4	nt
PrP 5UTR inh	-57	-11	-4	nt	nt	-25
Bead autofluor	3393	3150	6240	4861	nt	4934
BJeLR viability	5	2	-7	-7	nt	-4
Sa RN4220 lethal	6.8	15	5.3	4.6	5.2	nt

43: CS(=O)(=O)Nc1ccc(C(=O)Nc2ccc3c(c2)OCCO3)cc1
44: C=CCn1c2ccccc2c2nnc(SCC(=O)O)nc21
45: O=C(CCc1ccccc1)NNC(=O)COc1ccc(Cl)cc1
46: O=C(NN=Cc1ccccc1O)c1cccc([N+](=O)[O-])c1
47: N=c1c[n+](C2CCCCC2)[n-]o1
48: Cc1cccnc1Nc1nc(-c2ccc(O)c(O)c2)cs1

compound no.	43	44	45	46	47	48
Mtb hypoxia rep	6	9	6	9	-3	3
Mtb hypoxia rep growth	10	0	-11	9	-2	-3
Sa ugtP lethal	-1	5	0	-1	13	-33
PrP 5UTR inh	-47	-18	-30	9	-22	-143
Bead autofluor	20301*	3297	6239	3968	3232	9661
BJeLR viability	5	-1	3	nt	-1	-2
Sa RN4220 lethal	1.7	3.4	3.9	5.9	5.3	10

(list continues)
Each structure is followed by: Mtb hypoxia rep, Mtb hypoxia rep growth, Sa ugtP lethal, PrP 5UTR inh, Bead autofluor, BJeLR viability, Sa RN4220 lethal
49. CC(=O)Nc1ccc(OS(=O)(=O)c2ccc(Cl)cc2)cc1
→ -7, 0, 4, -25, 3820, -3, 8.3
50. COc1ccc2c(c1)C=C(C(=O)OCc1cccnc1)CO2
→ 4, 6, 4, -14, 4366, 1, 6.7
51. CCc1c(C)sc(NC(=O)c2cccs2)c1C(=O)OC(C)C
→ 4, 6, 7, -12, 12819, -9, 1.1
52. CC1CCN(C(=O)C2CCN(S(=O)(=O)c3cccnc3)CC2)CC1
→ 8, 7, 1, -27, 10461, -1, 5.3
53. CC(=O)NC(c1ccccc1)c1c(O)ccc2ccccc12 (stereo not drawn)
→ 3, 2, 6, -22, 4632, -4, 2.4
54. c1ccc(-c2ccc(-c3nc(-c4ccncc4)no3)cc2)cc1
→ 3, 4, -14, -82, 11447, 15, 11
55. COc1ccc(C2CC(=O)C=C(c3c(C)cc(C)cc3C)C2)cc1 (stereo not drawn)
→ 2, 1, 72, nt, nt, nt, -4.8
56. CSCCC(NS(=O)(=O)c1ccc(Cl)cc1)C(=O)OCC(=O)N(C(C)C)C(C)C (stereo not drawn)
→ 1, 4, 11, -13, 3383, 1, 6.7
57. COc1ccc(S(=O)(=O)Nc2ccccc2C(=O)NC2CC2)cc1NC(C)=O
→ 3, 3, 2, -10, 3874, nt, 4.7
58. C=CCn1cc(C(=O)OCC)c(=O)c2ccc(F)cc21
→ 8, 11, -7, 46, 3339, -11, 3.7
59. Cn1cnc([N+](=O)[O-])c1Nc1ccc(O)cc1
→ 0, 8, 1, -22, 3215, -1, 4.9
60. O=C1CN(C(=O)COc2ccccc2F)c2ccccc2N1
→ -12, -6, -7, -7, 2646, 3, -4.6
61. O=C(CN1CCCC1)N/N=C/c1ccc(-c2cccc(Cl)c2)o1
→ nt, nt, nt, -38, 3199, -2, nt
62. CC1(CCOCc2ccccc2)NC(=O)NC1=O (stereo not drawn)
→ 19, 12, 4, -15, 3475, nt, 4.8
63. CC(Oc1ccc(F)cc1)C(=O)NN (stereo not drawn)
→ 1, -2, 0, -2, 2444, 4, 2.6
64. O=C(NCC1CC1)c1onc(CSc2ccccc2)c1C(=O)NCC1CC1
→ 10, 9, -8, 4, 3700, 11, 9.8
65. Cc1cc(NS(=O)(=O)c2ccc(NC(=O)C3CCCCC3)cc2)no1
→ 3, -7, 4, -28, 4769, -9, -0.4
66. Cc1nn(CCCC(=O)NCc2ccccc2)c(=O)c2nccn12
→ 1, -3, 0, -6, 5440, 0, -1.9
67. CC(=O)N(C1=C(N)C(=O)c2ccccc2C1=O)C(C)C
→ 4, 4, 18, -16, 4317, 4, 36

Random draw from the library; about 4% have a hit in one of these screens.
